# Rango-impB inh: qHTS Assay for Inhibitors of Rango (Ran-regulated importin-beta cargo) - Importin beta complex formation. Rango CFP/YFP FRET sensor + importin beta, 45 min. actives 0.031% (n = 340,000). Potency, µM (series often up to 92.2 µM), for inactives: top-dose inhibition of complex formation; active = rising FRET ratio curve, often small or poorly fitted; inconclusive = mostly compound fluorescence or quenching in the first reads; inactive = flat curves in all reads;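 note: potency is the fitted concentration of half-maximal effect; 0% = DMSO wells and 100% = buffer wells lacking importin beta; nearly all actives have a fitted effect of over 15% in size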
#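 Inhibition scored from the CFP 486 nm/YFP 530 nm FRET ratio 45 min after adding 0.125 microM importin beta to 50 nM Rango biosensor preincubated 5 min with compound (room temperature, PBS with DTT, Tween-20, BSA). No-importin wells as positive control.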
# GLA inh pH 4.5: qHTS Assay for Inhibitors of Human alpha-Galactosidase at pH 4.5. AID 1467, 2008. 230,000 tested, under 10 active. purified enzyme, 4-MU-alpha-Gal fluorescence, pH 4.5. activity change, negative = inhibition, % at 105 µM; inconclusive = small, poorly fitted or top-dose-only inhibition, or a rising curve; inactive = flat fitted curve, though single readings scatter; no compound was filed as active;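 note: 0% = full activity with enzyme and -100% = basal without enzyme; dose as in the result columns while the protocol names 77 µM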
# Target sequence (P06280 whole entry, looked up): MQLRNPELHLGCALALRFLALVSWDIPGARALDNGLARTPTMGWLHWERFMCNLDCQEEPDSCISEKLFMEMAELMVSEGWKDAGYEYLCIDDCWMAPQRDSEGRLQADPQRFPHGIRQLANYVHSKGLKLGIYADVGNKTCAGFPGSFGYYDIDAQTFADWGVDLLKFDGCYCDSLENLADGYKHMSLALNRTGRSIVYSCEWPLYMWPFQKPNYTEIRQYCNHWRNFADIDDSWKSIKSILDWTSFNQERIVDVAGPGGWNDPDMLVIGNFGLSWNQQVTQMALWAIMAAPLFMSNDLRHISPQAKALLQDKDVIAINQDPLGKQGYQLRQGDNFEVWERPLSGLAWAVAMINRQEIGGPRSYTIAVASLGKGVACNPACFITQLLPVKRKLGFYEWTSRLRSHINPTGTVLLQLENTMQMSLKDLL
# Rango release inh: qHTS Assay for Inhibitors of RanGTP induced Rango (Ran-regulated importin-beta cargo) - Importin beta complex dissociation. Potency, µM (top dose mostly 46.1 µM), for the others: at the highest dose activity change, negative = inhibition. Biochemical FRET Rango-importin beta, RanGTP-induced dissociation. AID 540253, 2011. Snurportin-1 (Homo sapiens) + GTP-binding nuclear protein Ran (Homo sapiens) + Importin …. actives 0.071% (n = 340,000); active means falling FRET ratio curve, often poorly fitted, with flat reads before Ran was added; inconclusive means other falling curves, or compound fluorescence or quenching; inactive means flat or rising ratio curve;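 note: potency is the fitted concentration of half-maximal effect; % of control where 0% means no effect; nearly all actives have a fitted effect of over 45% in size; -100% = wells without RanGTP and RCC1; the record marks most hits as doubtful in a second field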
#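 FRET read at 45 min, room temperature: inhibitors block the CFP/YFP signal rise when RanGTP (0.6 uM Ran, 2 mM GTP, 0.2 uM RCC1) frees Rango (0.1 uM) from importin beta (0.25 uM). Pre-read after 5 min compound exposure flags interference.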
# miR-21 reporter: qHTS Assay for Modulators of miRNAs and/orActivators of miR-21. Potency, µM (highest dose often 38.3 µM), inactives show at the top dose reporter change, positive = more light. HeLa miR-21 FLuc reporter, luciferase, 48 h. 340,000 tested, under 10 active; active = well fitted rising curve with a large enough effect; inconclusive = small, poorly fitted or top-dose-only effect; inactive = no such curve, though single readings can be large or run the other way;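 note: % of control where 0% means no effect; miR-21 action dims this reporter so a rising signal means less miR-21 action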
#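 Compounds were titrated across several concentrations (up to approximately 40 uM) and incubated 48 hours with HeLa miR-21-FLuc reporter cells (miR-21 target sequence downstream of FLuc, endogenous miR-21). Readout was firefly luciferase luminescence after lytic detection reagent.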
# An asterisk follows results filed as active; ? = inconclusive; / = not tested or not shown; & = joins results of further samples; [ ] = remark or other dose. Some of the compounds tested; rates above refer to the full screens.
SMILES,Rango-impB inh,GLA inh pH 4.5,Rango release inh,miR-21 reporter
COc1cc(NC2c3ccccc3C(=O)N2c2cc(C)ccn2)cc(OC)c1OC (stereo not given),-2.1%,5.8,0.3%,-40.8%
COc1ccc(OC)c(C2N(c3ccccn3)C(=O)C3CCCN32)c1 (stereo not given),1.9%,-6.0,-7.1%,-2.4%
CC(C)C(NS(=O)(=O)c1cccc2nsnc12)C(=O)Nc1nc2ccc(Cl)cc2s1 (stereo not given),2.3%,-4.1,32.4%,0.5%
CCn1c(=O)c(=O)n(CC)c2cc(S(=O)(=O)N3CCc4ccccc43)ccc21,-1.8%,-16.9,-7.5%,10.7%
COc1cccc(CN2CC(C(=O)NCC3CCOCC3)CCC2=O)c1 (stereo not given),-1.0%,/,-16.6%,-0.6%
Clc1ccc(C2CC(c3ccco3)n3ncnc3N2)cc1Cl (stereo not given),5.6%,0.8,-5.2%,0.8%
COc1ccc(OC)c(CNS(=O)(=O)c2c(C)nc3scc(C)n3c2=O)c1,-2.8%,/,0.1%,-0.2%
CN(C)S(=O)(=O)c1ccc(NC(=O)N2CCN(c3ccccc3Cl)CC2)cc1,0.7%,2.5,-11.7%,-0.2%
O=C(Nc1ccc(C(=O)NCc2ccccc2Cl)cc1)C1=CSCCO1,2.5%,/,-4.7%,-24.8%
CCCn1c(N2CCOCC2)nc2c1c(=O)[nH]c(=O)n2C,0.1%,9.8,0.4%,-6.7%
O=C(Cc1cccs1)Nc1cccc(C(=O)Nc2ccco2)c1,0.3%,-2.2,2.5%,4.0%
Oc1ccc(/C=N/NC(=S)N2CCOCC2)cc1,0.6%,-0.5,-7.0%,-22.5%
Cc1cccc(Cn2c(N3CCc4ccccc4C3)nc3c2c(=O)[nH]c(=O)n3C)c1,-2.4%,2.8,2.0%,-4.2%
Oc1ccccc1CNCCCN1CCOCC1,?,/,7.0%,-2.2%
O=C(NNC(=O)c1ccccc1Cl)c1cccnc1,-2.9%,/,-7.7%,-12.3%
CSCC(=O)Nc1cc(C)on1,1.1%,-3.6,7.4%,-0.2%
Fc1ccc(NC(=S)NN=Cc2ccccc2Cl)cc1,0.8%,/,10.0%,/
O=C(CSc1oc(-c2ccc(F)cc2)nc1S(=O)(=O)c1ccc(F)cc1)NCC1CCCO1 (stereo not given),2.8%,1.6,9.5%,-5.2%
Cc1nc(OCC(=O)c2ccc(Cl)cc2)c(C#N)c2c1COC(C)(C)C2,?,-6.3,-5.2%,-5.1%
FC(F)(F)c1cc(-c2cccs2)nc(N2CCOCC2)n1,0.6%,-8.5,7.4%,0.1%
CCc1c(C)sc(NC(=O)/C=C/C(=O)O)c1C(N)=O,-0.6%,1.0,-3.4%,0.8%
CS(=O)(=O)Nc1cccc2cccnc12,?,7.1,-10.5%,-2.7%
O=C1CCN(Cc2ccco2)C(=S)N1,-0.4%,/,5.4%,/
O=C(COc1coc(CN2CCN(c3ccccc3F)CC2)cc1=O)Nc1ccccc1,3.5%,/,-3.9%,/
Cc1csc(CN(C)C(=O)C2CCC(=O)N(CCN(C)C)C2)n1 (stereo not given),-0.3%,/,0.7%,-0.8%

# Later entries.
SMILES,Rango-impB inh,GLA inh pH 4.5,Rango release inh,miR-21 reporter
CCCn1cnc2c(Sc3c([N+](=O)[O-])ncn3C)nc(N)nc21,-1.7%,/,-2.7%,/
O=C(c1cccs1)N1CCN(c2ccc(F)cc2)CC1,1.7%,-19.8,-5.2%,-14.1%
CN(C1CCCCC1)S(=O)(=O)c1ccc(NC(=O)C2CCCCC2)cc1,0.1%,-13.2,1.9%,2.1%
O=C(N/N=C/c1ccc(-c2ccccc2C(=O)O)o1)c1cccs1,?,-6.1,-6.0%,-29.0%
O=C(COc1ccc2c3c(c(=O)oc2c1)CCC3)NCc1cccnc1,0.0%,/,8.3%,3.0%
Cc1ccc(C(=O)O)cc1S(=O)(=O)N1CCSCC1,-1.5%,2.5,20.0%,-4.7%
Cc1c(NC(=O)c2cc(Br)ccc2Cl)cccc1-n1cnnn1,0.0%,/,6.3%,/
CCC1Sc2ccc(S(=O)(=O)CCC(=O)NCc3ccc(C)o3)cc2NC1=O (stereo not given),4.4%,/,-5.4%,6.2%
Clc1ccc(NCc2cccnc2)c(Cl)c1,2.4%,/,2.1%,-12.2%
CCOCCCn1c(SCC(=O)Nc2ccc(OC)cc2)nc2ccccc2c1=O,4.0%,/,11.8%,8.6%
COc1ccc(-n2cnnc2SC(C)C(=O)Nc2cccc([N+](=O)[O-])c2)cc1 (stereo not given),5.5%,6.6,0.3%,-9.6%
Cc1ccc(NC(=O)Cn2c(=O)oc3ccccc32)cc1Cl,-2.2%,/,0.1%,-4.6%&0.4%
COc1cccc(C(=O)Nc2cnc(NC(=O)c3ccco3)cc2C)c1,-1.8%,-3.6,10.1%,-23.8%
FC(F)(F)c1cc(C(F)(F)F)c2ccc(N/N=C/c3ccccc3)nc2n1,-4.6%,3.3,-3.1%,1.0%
N#Cc1c(-c2ccco2)cc(-c2ccc(F)cc2)nc1N,?,7.2,?,-7.1%
O=C(/C=C/c1ccco1)Nc1ccc(Oc2ccc(Cl)cc2)cc1,-1.7%,4.1,-9.4%,15.8%
CCCCn1c(N)c(Sc2ccc([N+](=O)[O-])cc2)c(=O)[nH]c1=O,3.0%,/,-14.2%,-0.1%
COc1cc(F)cc(-c2ccc3c(c2)c(C#Cc2ccsc2)c(-c2cc(OC)cc(OC)c2)n3C)c1,-1.1%,/,-9.7%,/
COc1ccc(CCC(=O)NC2CCCN(Cc3ccc(Cl)cc3)C2)cc1OC (stereo not given),?,/,-14.2%,10.0%
COc1ccc(-c2cc(C(F)F)n3ncc(C(=O)NCC4CCCO4)c3n2)cc1 (stereo not given),?,25.4,?,-0.4%
CCOC(=O)CSc1nc2c(sc(=S)n2CCc2ccccc2)c(=O)n1Cc1ccco1,-4.2%,-2.2,8.2%,-0.7%
CCOC(=O)c1c(C)c(C(=O)NCc2ccc3c(c2)OCO3)c(C)n1C,0.3%,-0.4,-21.1%,-7.3%
O=S(=O)(NCc1ccccn1)c1ccc2c(c1)OCCO2,-5.5%,13.7,0.3%,-4.0%
CCN(CC)S(=O)(=O)c1ccc(N2CCOCC2)c(NS(=O)(=O)c2ccc(OC)cc2)c1,0.6%,2.8,6.8%,0.3%
NS(=O)(=O)c1ccc(NC(=O)COC(=O)CSCc2ccc(F)cc2)cc1,-1.1%,/,2.5%,/

# New compounds follow:
SMILES,Rango-impB inh,GLA inh pH 4.5,Rango release inh,miR-21 reporter
O=C1CN(c2ccccc2)C(=S)N1c1ccccc1,0.2%,/,11.0%,-6.0%
O=C(NCCc1ccccc1)C1CCC(CNS(=O)(=O)c2ccccc2)CC1 (stereo not given),-3.2%,/,?,2.8%&-4.1%
COc1ccc(/C=N\NC(=O)c2sc(N)nc2C)cc1OC,2.7%,-13.0,1.0%,-14.2%
COc1ccc(N2CCN(C(=O)c3cc(=O)c4cc(C)c(C)cc4o3)CC2)cc1,-0.7%,/,7.9%,-3.3%
FC(F)(F)c1nnc2ccc(Sc3ccccn3)nn12,-0.1%,2.0,-3.9%,1.6%
CCOc1ccc(-c2csc(/C(C#N)=C\c3ccc(O)c([N+](=O)[O-])c3)n2)cc1,12.8%,-15.9,-3.5%,-0.8%
CC1CCc2nc(N)c(C#N)c(-c3cccn3C)c2C1 (stereo not given),?,-3.6,4.3%,-1.1%
CCOC(=O)C(Cc1ccccc1)C(=O)Nc1ccc(N(CC)CC)cc1 (stereo not given),-1.7%,-12.2,22.0%,-3.2%
O=C1C2ON(c3ccccc3)C(c3cccnc3)C2C(=O)N1c1ccccc1 (stereo not given),0.2%,3.1,2.1%,-8.3%
COc1cccc2cc(C(=O)NCc3ccc(C)cc3)c(=O)oc12,0.2%,/,22.3%,-1.5%
CC1=CC(c2ccc(Cl)cc2)n2nc(NS(=O)(=O)c3ccc(C)cc3)nc2N1 (stereo not given),?,12.0,?,-7.3%
COc1ccc(CC(=O)Nc2cccc(S(=O)(=O)N3CCCC3)c2)cc1OC,3.6%,/,-11.4%,/
NNC(=O)c1ccc(CSc2cccc3cccnc23)cc1,0.0%,8.7,-7.2%,-9.4%
CC(C)(C)c1cc(C(c2cccnc2)N2CCN(CCO)CC2)cc(C(C)(C)C)c1O (stereo not given),1.8%,-6.8,-12.6%,?
CCC1CCCCN1C(=O)COC(=O)c1ccc(Br)o1 (stereo not given),-1.2%,/,21.8%,/
CCOC(=O)C1=C(C)NC(=S)NC1c1ccsc1 (stereo not given),-0.4%,3.0,13.0%,12.1%
CC(OC(=O)CCc1nc(=O)c2ccccc2n1C)C(=O)NCc1ccc2c(c1)OCO2 (stereo not given),3.8%,-6.8,14.4%,0.6%
CCCOC(=O)Nc1sc2c(c1C(=O)OCC)CCC2,0.9%,-0.9,12.1%,-1.0%
COc1ccc(C(=O)OCC(=O)NCC2CCCCC2)c(OC)c1,-0.2%,/,-0.1%,/
COc1ccccc1C(=O)COC(=O)c1ccc(-n2cnnn2)cc1,-0.1%,/,1.2%,/
Cc1cccc(NC(=O)CSc2c3c(nc4ccccc24)CCC3)n1,-2.8%,5.2,3.0%,2.1%
COc1ccc(NC(=O)NCCc2cccc(Cl)c2)cc1OC,-0.2%,7.2,-0.7%,-32.6%
Cc1occc1C(=O)Nc1nnc(-c2cccs2)s1,-1.5%,-2.7,-4.1%,-56.1%
CCCCCCN1C=CC=C/C1=C/C=C(C#N)C#N,?,6.0,?,-2.8%
O=C(O)c1cc([N+](=O)[O-])ccc1Oc1ccccc1,-1.0%,/,6.8%,/

# The list continues:
SMILES,Rango-impB inh,GLA inh pH 4.5,Rango release inh,miR-21 reporter
CN1C(=O)/C(=C/c2cn(CC(=O)N3CCCCC3)c3ccccc23)c2ccccc21,/,-22.5,/,22.3%
Cc1ccc(C(=O)N/C(=C\c2ccc(F)cc2)C(=O)NCCCn2ccnc2)cc1,-0.5%,/,7.7%,0.2%
CCOC(=O)N1[C@@H]2C=C(C)[C@@H]2[C@@H]2[C@@H](C)C(=O)N21,1.8%,-9.4,-12.1%,-0.9%
CN(C)CCCOc1ccc(C(C)(C)c2ccccc2)cc1,3.0%,-5.1,12.5%,-13.0%
O=C1c2ccccc2C(=O)N1OCCOCCOCCON1C(=O)c2ccccc2C1=O,0.6%,-1.9,3.6%,-8.5%
COc1cccc(/C=C/C(=O)OCC(=O)N(C)CC(=O)Nc2ccccc2Cl)c1OC,-1.0%,/,-1.1%,/
CCOC(=O)c1cnc(-n2cc(C)cn2)nc1Nc1ccccc1OCC,-0.2%,15.2,11.7%,-4.7%
COc1cc(C(=O)N2CCN(S(=O)(=O)c3cccs3)CC2)cc(OC)c1C,0.1%,-11.5,1.0%,-2.5%
CCc1cc(C(=O)NNC(=S)NCC2CCCO2)cs1 (stereo not given),4.9%,4.1,1.2%,-20.4%
CCc1ccccc1NC(=O)c1cc2sccc2n1C,5.2%,-8.0,7.9%,-19.3%
O=C(CSCc1ccc(F)cc1)NCc1ccc2c(c1)OCO2,-3.7%,1.6,-4.9%,-4.0%
CCN1CCN(c2cc(C)c3cc(NC(=S)NCCCN4CCc5ccccc5C4)ccc3n2)CC1,-4.2%,0.7[21.1 µM],-8.6%,-6.1%
CCOC(=O)c1ccc(S(=O)(=O)N2CCNCC2)cc1,8.3%,-4.4,4.5%,-3.7%
Cc1cc(NS(=O)(=O)c2ccc(NC(=O)C(C)Oc3cccc(C)c3C)cc2)nc(C)n1 (stereo not given),-0.2%,/,8.6%,-3.4%
NC(=O)C1CCN(C(=O)CCc2ccsc2)CC1,0.7%,/,10.4%,0.2%
C=C[C@@H](C)N(Cc1ccc(OC)cc1)S(=O)(=O)N(Cc1ccccc1)[C@H](C=C)C(C)C,?,/,-6.9%,/

# High-throughput results deposited in PubChem BioAssay by National Center for Advancing Translational Sciences (NCATS).
